Assay outcomes: PubChem BioAssay, several laboratories
UUG fidelity = yeast start codon fidelity modulation | S. cerevisiae UUG-firefly luciferase reporter, luminescence/redox ratio | activity score, % at 18.7 µM | actives 0.13% (n = 350,000);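 active = replicate mean at a twofold rise or more, about +100% in these data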;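 also: firefly luciferase made from a UUG start codon reports start codon fidelity; reporter light over untreated wells divided by growth signal over untreated wells; some hits fall short of that in this replicate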
Rce1 inh = yeast Ras-converting enzyme inhibition; Q03530; yeast membranes, quenched prenylated peptide cleavage fluorescence; calls only; actives 0.27% (n = 290,000); AID 2563;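 active = fall in fluorescence gain of 50% or more versus controls, with final raw signal at or below 3038400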;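 also: plate controls were neutral control wells for no effect and wells lacking membranes for full effect; tested at 10 µM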
Target sequence (Q03530 whole entry, looked up): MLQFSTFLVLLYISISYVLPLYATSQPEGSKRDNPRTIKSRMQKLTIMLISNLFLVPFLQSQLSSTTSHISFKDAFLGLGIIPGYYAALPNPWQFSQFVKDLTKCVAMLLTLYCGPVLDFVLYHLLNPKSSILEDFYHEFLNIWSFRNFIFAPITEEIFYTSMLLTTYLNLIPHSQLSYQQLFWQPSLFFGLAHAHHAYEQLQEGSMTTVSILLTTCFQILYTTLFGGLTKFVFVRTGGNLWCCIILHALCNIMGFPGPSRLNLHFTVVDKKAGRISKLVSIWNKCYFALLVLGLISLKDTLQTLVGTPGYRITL
CSC inhib = cancer stem cell inhibition; actives 1.1% (n = 300,000); cancer stem cell-like cells viability, luminescence; inhibition, % at 7.5 µM;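 active = mean at 75% or more and at least half the replicates too; tested in HMLE shEcad cells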;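 also: 0% = median of negative and 100% = median of positive control wells; the first replicate is given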
PABP FP inh = blocks human PABP binding to poly(A) RNA; actives 1% (n = 290,000); fluorescence polarization; inhibition, % at 35 µM; P11940;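 active = 50% or more with normal probe brightness, or confirmed in later tests; about a fifth of its hits are not listed in these tables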;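 also: calls also rest on retests at 20 µM and on dose response follow-up; controls were probe without protein and protein plus probe with vehicle; some compounds called inactive have numbers as strong as hits; many hits fall short of the cut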
Target sequence (P11940 whole entry, looked up): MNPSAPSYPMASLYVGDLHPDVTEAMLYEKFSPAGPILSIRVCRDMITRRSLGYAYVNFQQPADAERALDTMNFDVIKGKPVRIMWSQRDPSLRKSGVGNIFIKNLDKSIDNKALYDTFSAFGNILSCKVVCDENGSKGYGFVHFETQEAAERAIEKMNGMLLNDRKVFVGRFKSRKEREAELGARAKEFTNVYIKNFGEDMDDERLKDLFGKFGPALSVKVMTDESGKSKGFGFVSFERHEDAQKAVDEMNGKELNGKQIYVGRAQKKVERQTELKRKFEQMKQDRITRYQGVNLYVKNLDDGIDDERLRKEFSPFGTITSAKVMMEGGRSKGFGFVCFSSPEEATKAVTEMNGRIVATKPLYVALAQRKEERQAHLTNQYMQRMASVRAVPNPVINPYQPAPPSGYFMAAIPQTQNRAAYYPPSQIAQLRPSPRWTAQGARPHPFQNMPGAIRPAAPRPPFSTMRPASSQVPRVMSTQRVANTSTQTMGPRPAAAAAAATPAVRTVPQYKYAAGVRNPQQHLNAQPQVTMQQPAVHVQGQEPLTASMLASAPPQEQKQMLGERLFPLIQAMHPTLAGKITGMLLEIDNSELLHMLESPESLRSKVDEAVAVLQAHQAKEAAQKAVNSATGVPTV
HIV Env fusion = HIV envelope-mediated fusion inhibition. HeLa-JRFL Env/CEM21 cell fusion, luciferase. inhibition, % at 12.3 µM. actives 1.1% (n = 360,000);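 active = mean replicate inhibition score of at least 50 and every replicate individually at or above 50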;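 also: 0% = plate neutral controls and 100% = maraviroc near 300 nM; one replicate is shown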
eIF4H inh = inhibitors of RNA binding by human eIF4H | Q15056 | eIF4H fluorescence polarization binding assay | inhibition, % at 35 µM | actives 0.94% (n = 290,000) | AID 2012;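 active = 50% or more with normal probe brightness, or confirmed in later tests; about a fifth of its hits are not listed in these tables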;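 also: calls also rest on retests at 20 µM and on dose response follow-up; 0% = protein and probe with vehicle and 100% = probe without protein; strong numbers were not always called active; many hits fall short of the cut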
MT1-MMP act inh = blocks activation of human MT1-MMP | HT1080 RFP-PRO-GFP cells, GFP/RFP ratio fluorescence, overnight; percent of plate control window, DMSO zero | GFP/RFP ratio change, % at 20 µM | actives 0.061% (n = 360,000) | AID 651647;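 active = GFP/RFP ratio change of at least 30% with cell ATP level not reduced by more than half and red fluorescence within 50% of control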; also: strong numbers were not always called active
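Compound: 20 µM single dose, 1% DMSO / System: HT1080 RFP-PRO-GFP cells / Controls: DMSO and RFP-L50D-GFP cell wells / Read-out basis: GFP/RFP fluorescence ratio / Schedule: overnight compound exposure at 37 °C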
MT1-MMP act inh RFP = recorded beside MT1-MMP act inh, whose call it bears; RFP signal change, %; measured here: RFP expression control read;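 0 = vehicle wells; hits needed this value within 50% of zero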
The depositor's hits bear a star; i = inactive; . = no result given. This is a subset; rates above refer to the full screens.

Each structure is followed by: MT1-MMP act inh	Rce1 inh	PABP FP inh	CSC inhib	UUG fidelity	eIF4H inh	MT1-MMP act inh RFP	HIV Env fusion
- Cc1ccc(C(=O)NN2C(=O)C3C4c5ccccc5C(c5ccccc54)[C@@H]3C2=O)cc1 (stereo partly drawn)
 : -2	i	-3	10	-1	-8	0	-38
- CC1Cc2ccccc2N1C(=O)c1nn(C)cc1Br (stereo not drawn)
 : -1	i	-18	-6	.	2	-4	-14
- C#C[C@]1(O)CC[C@H]2[C@@H]3CCC4=Cc5oncc5C[C@]4(C)[C@H]3CC[C@@]21C
 : 2	i	.	10	-7	.	-10	13
- CCOc1ccc(CCNC(=O)C2CCN(c3nn4c(=O)cc(C)nc4s3)CC2)cc1
 : 6	.	-1	-5	-16	2	7	.
- COc1cc(/C=N\NC(=O)CNC(=O)c2cccc([N+](=O)[O-])c2)ccc1O
 : 2	i	-7	-10	0	0	0	.
- O=C(Nc1ncc2c(n1)-c1ccccc1CC2)C1CC1
 : -3	i	22	-9	.	2	0	-17
- O=C(Nc1ccc(Cl)cc1)Nc1nnc(SCc2ccccc2)s1
 : 1	i	3	15	.	-6	-1	1
- O=C(Nc1c(F)cccc1F)c1cnc(N2CCN(c3ccccn3)CC2)c2ccccc12
 : 1	i	-6	20	9	2	-13	-144
- COc1ccc(S(=O)(=O)N(CCN2CCOCC2)Cc2cc(OC)ccc2OC)cc1
 : -16	i	13	-8	7	-6	-11	.
- CCn1c(SCC(=O)OC)nnc1-c1ccc(C)cc1
 : 1	i	11	-6	-5	4	4	-3
- N#Cc1ccc(Oc2ccc(-c3nc4ccccc4nc3-c3ccccc3)cc2)cc1C#N
 : -8	i	3	-3	-15	4	-6	22
- CCN=C1SC(C(=O)Nc2cccc(C)c2)CC(=O)N1CC (stereo not drawn)
 : 7	i	-10	12	-4	-8	2	-22
- Cc1cc(C(=O)NCCc2ccccc2)c2cc(F)ccc2n1
 : 3	i	0	-13	.	2	2	-4
- COCCN(C(=O)COC(=O)c1ccc2ccccc2c1)c1c(N)n(Cc2ccccc2)c(=O)[nH]c1=O
 : -2	.	.	.	-5	.	0	-22
- COC(=O)c1ncn(C2OC(COC(C)=O)C(OC(C)=O)C2OC(C)=O)n1 (stereo not drawn)
 : 3	i	-14	-5	.	-10	5	-43
- Cc1ccc(NC(=O)/C(C#N)=N/Nc2ccc(C(=O)O)cc2)c(C)c1
 : -4	i	0	-4	-10	-12	-4	-14
- CN(C)NC(=O)C(NC(=O)c1ccc(N)cc1)C12CC3CC(CC(C3)C1)C2 (stereo not drawn)
 : 0	i	3	-15	-6	-4	0	11
- COc1cccc(N2CCN(S(=O)(=O)c3cc4c(cc3Cl)NC(=O)CO4)CC2)c1
 : 1	i	-2	-1	-15	-8	7	.
- CCOC(=O)C1(Cc2cccc(Cl)c2)CCCN(C(=O)CCSC)C1 (stereo not drawn)
 : -1	i	1	-7	-8	-6	-3	9
- CCN(CC(=O)Nc1ccc(NC(C)=O)cc1)CC(=O)Nc1cccc2ccccc12
 : 5	.	.	.	-5	.	4	6
- CCOc1ccccc1C1CC(=O)NC(SCC)=C1C#N (stereo not drawn)
 : 7	i	14	-7	.	-10	1	33
- COC(=O)c1ccc(Oc2c(C)oc3cc(OCc4cnn(-c5ccccc5)c4)ccc3c2=O)cc1
 : -2	i	13	9	-13	-8	-4	8
- O=C(/C=C/c1cccs1)c1ccco1
 : 0	.	.	.	-4	.	1	7
- Cc1ccc(NS(=O)(=O)c2ccc(C)c(NC(=O)COc3ccccc3)c2)c(C)c1
 : 3	i	16	-11	.	-12	-5	.
- CCC(=O)NCCc1nc2ccccc2n1CC(=O)c1ccccc1
 : 2	i	8	-8	-10	3	2	-13
- CCCOc1ccc(/C=C2/C(=O)ON=C2C)cc1OCC
 : -9	i	2	4	-18	-9	-5	-33
- C=CCOc1c(Br)cc(/C=C2/C(=O)ON=C2C)cc1OC
 : 9	i	16	-11	25	8	7	8
- CCOc1ccc(NC(=O)C2CC(=O)N(C(C)C)C2)cc1 (stereo not drawn)
 : 0	i	6	-4	-13	4	1	-46
- N/C(=N\OC(=O)CC1CCCCC1)c1ccc([N+](=O)[O-])cc1
 : 3	i	2	9	-12	17	1	-6
- COc1ccc(CN2CCNC(=O)C2CC(=O)N2CCCCO2)cc1OC (stereo not drawn)
 : 1	i	-2	10	.	-4	2	6
- CCCn1c(N)c(N(CCOC)C(=O)c2ccc(F)cc2)c(=O)[nH]c1=O
 : 3	i	10	-2	-14	-1	4	0
- CC(C)[C@H](NC(=O)NCCc1ccc(F)cc1)C(=O)O
 : 5	i	3	7	-10	-1	4	.
- COc1ccc(C(=O)NC2CC(C)(C)Cc3occc32)cc1 (stereo not drawn)
 : -1	i	10	-7	.	4	-1	.
- Cc1ccccc1CN1CCN(CC(=O)NCc2ccccc2)CC1
 : 3	i	8	5	5	5	1	-33
- Cc1ccc(-n2c(=O)c3c(C)c(C)sc3n(Cc3cc(=O)n4ccccc4n3)c2=O)cc1C
 : -12	i	4	5	-3	-1	-3	-44
- COCC(C)NC(=O)CSc1nc2ccccc2c(=O)n1CCc1ccc(S(N)(=O)=O)cc1 (stereo not drawn)
 : -4	i	7	-27	5	0	2	4
- COc1ccccc1N(C(C)=O)C1SC(=O)N(c2ccccc2)C1=O (stereo not drawn)
 : -1	i	-4	-7	-17	0	0	6
- COCCNC(=O)Cn1nc(-c2ccc(Cl)cc2)c2ccccc2c1=O
 : -5	i	-1	-8	-8	5	0	-8
- C/C(=N/Nc1nc(-c2ccc(Cl)cc2)cs1)c1cccs1
 : -2	i	12	10	0	-10	-6	-22
- COc1ccc(NC(=O)CS(=O)(=O)c2cn(CC(=O)N3CCOCC3)c3ccccc23)cc1
 : -6	i	-7	11	.	-5	-6	-16
- CCCCn1c(SCc2c(C)noc2C)nc2cc(S(N)(=O)=O)ccc21
 : 14	i	4	-16	-11	-8	11	.
- COc1ccc(-c2csc(NC(=O)Cc3ccccc3F)n2)cc1OC
 : -7	i	12	.	5	-2	-27	42
- COc1cccc(NC(=O)c2ccc3c(c2)N(CC(=O)N2CCCCC2)C(=O)C(C)(C)O3)c1
 : 5	i	2	-3	5	2	1	-7
- CC(=O)N1CCN(c2ccc(NC(=O)c3ccc(N4CCCC4)c([N+](=O)[O-])c3)cc2Cl)CC1
 : 5	i	1	41	-16	-13	-8	.
- Cn1c(=O)c2c(nc(NCc3ccc4c(c3)OCO4)n2Cc2ccccc2F)n(C)c1=O
 : -3	i	0	-6	4	-8	-6	.
- Cc1cc(OCC(=O)NCCN2CCOCC2)cc(C)c1Br
 : 3	i	6	.	-2	-6	4	.
- COc1ccc(CN2CCOCC2)cc1OC
 : 0	i	3	-5	-26	-5	-2	.
- O=C(NCCc1ccccc1)c1ccc(NC(=O)C2CCCCC2)cc1
 : 1	.	.	.	-24	.	4	23
- COc1cc(CNCc2ccccn2)ccc1OCc1cccc(Cl)c1
 : -1	i	2	14	-24	3	-6	.
- CCOc1c(Cl)cc(/C=N/NC(N)=S)cc1OC
 : 12	i	-2	9	-21	6	7	-11
- COc1ccc(NS(=O)(=O)c2ccc(Cl)c(N)c2)cc1Br
 : 2	i	6	-3	-14	-1	-5	-3
- Cc1ccc(C(=O)NCc2ccco2)cc1S(=O)(=O)Nc1cccc(Cl)c1
 : 3	i	-1	8	1	-7	1	-43
- O=C1CN(c2nc3ccccc3n3cnnc23)CC(=O)N1CCc1ccccc1
 : 2	i	-8	-7	-14	-14	2	-5
- C/C=C1\COC(C(=O)NCc2ccncc2)(C(F)(F)F)C=C1C=C1CCCCC1 (stereo not drawn)
 : 1	i	.	-8	-17	.	-4	4
- CCOC(=O)N1CCN(S(=O)(=O)c2ccc(OC)c(Cl)c2)CC1
 : -2	i	-3	-5	-6	-4	0	.
- c1ccc(CN2CCC(Nc3nc(-c4cccnc4)nc4ccccc34)CC2)cc1
 : -2	i	-10	-1	-4	-6	-10	-13
- CCC(C)N(C(=O)COC(=O)c1cn(CC)c2nc(C)ccc2c1=O)C1CCS(=O)(=O)C1 (stereo not drawn)
 : 7	i	5	-7	-9	7	-3	22
- CC(=O)N1CC(C)Oc2ccc(S(=O)(=O)NC(CC(=O)O)c3ccc(C)cc3C)cc21 (stereo not drawn)
 : -2	i	2	-11	-6	1	5	-7
- CCc1c(C)c(C#N)c2nc3ccccc3n2c1NC
 : -1	i	-17	5	.	-5	-3	20
- CC(C)(C)c1ccc(C(=O)N2CCC2(C)C(=O)Nc2cccc3ncccc23)cc1 (stereo not drawn)
 : 0	.	.	.	-16	.	-15	16

(next part)
Each structure is followed by: MT1-MMP act inh	Rce1 inh	PABP FP inh	CSC inhib	UUG fidelity	eIF4H inh	MT1-MMP act inh RFP	HIV Env fusion
- O=C(NCc1cccs1)C1(S(=O)(=O)c2ccccc2)CC=CC1
 : -1	i	3	-13	-14	7	0	3
- Cn1nc(N)c2ncc(-c3ccc(Cl)cc3)nc21
 : 0	.	.	.	10	.	-1	19
- CCNc1ccc(C(=O)OCC)cc1NC(=O)c1cccc(S(=O)(=O)N2CCOCC2)c1
 : 0	i	1	0	1	0	0	.
- CN(CC(=O)Nc1ccc(F)cc1)C(=O)CCc1nc2sc3c(c2c(=O)[nH]1)CCCC3
 : -11	i	.	-23	-3	.	-2	8
- c1ccc(-n2nnnc2-n2cnc3ccccc32)cc1
 : -1	i	0	-4	13	11	0	.
- O=C(NCCc1csc(-c2cccnc2)n1)c1ccc(Cl)cc1
 : 0	i	-1	-1	-2	-4	-8	-5
- CS(=O)(=O)Nc1ccc(-c2cn3c(n2)SCC3)cc1
 : -7	i	6	-6	-14	-1	-3	-17
- Cc1cccc2cc(/C=C/C(=O)c3ccco3)c(Cl)nc12
 : -7	i	0	33	-6	-8	-6	4
- COc1ccc(NC(=O)c2cc(-c3ccc(F)cc3OC)n[nH]2)c(OC)c1
 : -4	.	.	.	-13	.	2	2
- COc1ccc(NC(=O)c2sc(=O)n(Cc3ccc(F)c(Cl)c3)c2C)cc1OC
 : -6	.	.	.	-4	.	-8	0
- CC1CCCC(C)N1S(=O)(=O)c1ccc(NC(=O)c2ccccc2C(=O)N2CCOCC2)cc1 (stereo not drawn)
 : .	i	0	-10	7	-10	.	.
- Cc1cc2ncn(S(=O)(=O)c3ccc(S(=O)(=O)N4CCCCCC4)cc3)c2cc1C
 : 4	i	.	1	-8	.	1	.

Ordered by molecular weight (lowest first): some entries from above.
Each structure is followed by: MT1-MMP act inh	Rce1 inh	PABP FP inh	CSC inhib	UUG fidelity	eIF4H inh	MT1-MMP act inh RFP	HIV Env fusion
- Cn1nc(N)c2ncc(-c3ccc(Cl)cc3)nc21
 : 0	.	.	.	10	.	-1	19
- Cc1cccc2cc(/C=C/C(=O)c3ccco3)c(Cl)nc12
 : -7	i	0	33	-6	-8	-6	4
- Cc1cc2ncn(S(=O)(=O)c3ccc(S(=O)(=O)N4CCCCCC4)cc3)c2cc1C
 : 4	i	.	1	-8	.	1	.
